# GIRK2 act: activators of human GIRK2 potassium channels; G protein-activated inward rectifier potassium channel 2 (Homo sapiens), P48051; HEK293-GIRK2 thallium flux, Thallos fluorescence; calls only for hits at 25 µM; 63,000 compounds, 0.05% hits;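 active = among the strongest 0.2% of first-round signals and kept after retests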;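 note: first round at about 10 µM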
# Target sequence (P48051 whole entry, looked up): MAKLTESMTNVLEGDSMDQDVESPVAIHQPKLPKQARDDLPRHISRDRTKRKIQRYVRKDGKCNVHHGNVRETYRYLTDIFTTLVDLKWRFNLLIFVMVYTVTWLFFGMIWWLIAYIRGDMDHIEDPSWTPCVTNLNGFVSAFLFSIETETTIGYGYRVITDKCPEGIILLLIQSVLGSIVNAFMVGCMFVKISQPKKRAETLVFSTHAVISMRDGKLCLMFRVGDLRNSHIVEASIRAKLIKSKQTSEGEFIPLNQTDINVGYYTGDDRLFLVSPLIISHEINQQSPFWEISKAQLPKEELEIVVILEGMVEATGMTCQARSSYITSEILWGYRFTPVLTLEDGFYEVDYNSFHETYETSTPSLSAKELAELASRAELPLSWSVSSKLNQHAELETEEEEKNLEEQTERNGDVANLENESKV
# Calls only; i = inactive.
nr	mol	GIRK2 act
1	CCSc1ccccc1C(=O)NCc1sc(-c2cccs2)nc1C	i
2	CCCN1CCCc2cc(CCNC(=O)C(=O)Nc3cc(Cl)ccc3C#N)ccc21	i
3	CCOc1ccc(C2C(C(=O)c3ccc(C)o3)=C(O)C(=O)N2c2cc(C)on2)cc1OC (centres undefined)	i
4	NC(=O)c1oc2ccccc2c1NC(=O)CCCSc1ccc(Cl)cc1	i
5	O=C(NCCNS(=O)(=O)c1ccc(Cl)s1)c1ccc(NC(=O)C2CC2)cc1	i
6	Cc1ccc2c(=O)c(-c3nc(-c4cccc(F)c4)no3)cn(CC(=O)Nc3ccc(C(N)=O)cc3)c2n1	i
7	O=S(=O)(NO)c1ccccc1	i
8	O=S(=O)(c1ccc2c(c1)OCCO2)N(CCc1cccs1)C1CC1	i
9	COc1ccc(F)cc1S(=O)(=O)Nc1ccc(N2CCCCS2(=O)=O)cc1	i
10	COC(=O)c1ccc(S(=O)(=O)NCc2nn(C)c(=O)c3ccccc23)cc1	i

# 4 records picked at random from the list so far, as already listed:
nr	mol	GIRK2 act
8	O=S(=O)(c1ccc2c(c1)OCCO2)N(CCc1cccs1)C1CC1	i
4	NC(=O)c1oc2ccccc2c1NC(=O)CCCSc1ccc(Cl)cc1	i
1	CCSc1ccccc1C(=O)NCc1sc(-c2cccs2)nc1C	i
9	COc1ccc(F)cc1S(=O)(=O)Nc1ccc(N2CCCCS2(=O)=O)cc1	i

# The listing continues.
nr	mol	GIRK2 act
11	O=S(=O)(c1ccc(F)c(Cl)c1)N1CCC(Cc2ccccc2)CC1	i
12	CS(=O)(=O)N1CCC(Oc2nc3c(Cl)cccc3s2)CC1	i
13	O=C(c1cc(=O)c(OCc2ccccc2)c[nH]1)N1CCN(c2cccc(C(F)(F)F)c2)CC1	i
14	O=C(NCC1(CO)CC1)c1ccc2nsnc2c1	i
15	CCCS(=O)(=O)N1CCCc2ccc(NS(=O)(=O)c3ccc(OC)c(OC)c3)cc21	i
16	O=C1/C(=C/c2cccs2)Oc2c1ccc1c2CN(Cc2ccccn2)CO1	i
17	CC(=O)c1ccc(NC(=O)c2ccc(=O)n(Cc3cccc(F)c3)n2)cc1	i
18	O=C(Cc1ccc(F)cc1)Nc1cc(N2CCN(Cc3ccccc3)CC2)ncn1	i
19	Cc1nc(-c2ccc(N3CCN(C(=O)Cn4c(=O)oc5ccccc54)CC3)nc2)no1	i
20	Cc1cc(NC(=O)C(=O)NCC(c2cn(C)c3ccccc23)N(C)C)no1 (centres undefined)	i
21	O=c1[nH]cccc1-c1noc(C2CN(S(=O)(=O)c3ccc(Cl)s3)C2)n1	i
22	O=C(c1cccc(Br)c1)N1CC(Oc2nc3c(F)cccc3s2)C1	i
23	CCOC(=O)C(=O)N1CCC(c2nnc(CC)s2)CC1	i
24	C=CCOCC(O)Cn1c(N)nc2c1c(=O)[nH]c(=O)n2C (centres undefined)	i
25	O=C(C1CCCN(c2nc3c(-c4ccccc4)csc3c(=O)[nH]2)C1)N1CCOCC1 (centres undefined)	i
26	COc1ccc(-c2noc(-c3cccn(CC(=O)Nc4cccc(C#N)c4)c3=O)n2)cc1OC	i
27	NC(=O)C1CSCCC(=O)N1 (centres undefined)	i
28	COc1cccc(C2c3c(oc4ccc(F)cc4c3=O)C(=O)N2c2cc(C)on2)c1OC (centres undefined)	i
29	CCNC(=O)Nc1nc(-c2nc3ccccc3s2)cs1	i
30	COc1ccc(CNC(=O)c2nnn(-c3ccc(SC)cc3)c2-c2cccnc2)cc1	i
31	Cc1[nH]c(=O)[nH]c(=O)c1CCc1nnc(SCC(=O)c2ccc3c(c2)NC(=O)CO3)o1	i
32	CCc1nccn1CC1CCN(C(=O)COc2cccc3c2OC(C)(C)C3)CC1	i
33	COc1ccc2c(c1)c(CC(=O)Nc1ccccn1)c(C)n2C(=O)c1ccc(Cl)cc1	i
34	COc1ccccc1C1(C(=O)NCc2ccc(F)cc2)CCOCC1	i
35	COC(=O)N1CCC(CNC(=O)c2ccccc2C(F)(F)F)CC1	i
36	O=C(c1ccccc1Cl)N1CCC2(CC1)OCCS2	i
37	CN(C)S(=O)(=O)c1ccc2c(c1)CCN2C(=O)c1c[nH]c2c(Cl)cccc2c1=O	i
38	COCCCn1c(-c2ccc(Cl)cc2)nc2c(c(=O)c3ccccc3n2C)c1=O	i
39	CC(=O)NC1=NN(C(C)=O)C2(S1)C(=O)N(CCCOc1ccc(C)cc1)c1ccccc12 (centres undefined)	i
40	COc1ccc(-c2cn3c(C(=O)Nc4ccc(C(C)=O)cc4)csc3n2)cc1	i
41	CCc1noc(-c2ccnc(SCC(=O)Nc3ccc(OC)cc3)c2)n1	i
42	CN(C)S(=O)(=O)N1CCN(CC(=O)Nc2cc(Cl)ccc2Cl)CC1	i
43	COc1ccccc1NCCCn1c(C)c(C)n2c3c(=O)[nH]c(=O)n(C)c3nc12	i
44	CN(CCCN1c2ccccc2CCc2ccccc21)CC(=O)c1ccc(Cl)cc1	i
45	Cc1ccc(C)c(S(=O)(=O)Nc2ccc(C(=O)N3CCCCC3)cc2)c1	i
46	CS(=O)(=O)CCNCc1ccc(-c2ccc3ncnc(Nc4ccc(OCc5cccc(C(F)(F)F)c5)cc4)c3c2)o1	i
47	COc1cccc(NC(=O)C(=O)Nc2ccc3c(c2)N(S(=O)(=O)c2ccc(C)cc2)CCC3)c1	i
48	O=C(NCCc1cccs1)c1ccc(S(=O)(=O)N2CCOCC2)cc1	i
49	CCCn1c(=O)c2sc(N3CCCC3)nc2n(CC(=O)NCc2cccs2)c1=O	i
50	Cc1csc(NC(=O)c2c[nH]c3ccccc3c2=O)n1	i
51	Cc1ccc(NC(=O)C(C)(C)C)cc1N1CCCC1=O	i
52	CCSC(=N)N	i
53	O=C(CSc1nc2ccccc2c(=O)n1CC1CCCO1)Nc1ncn[nH]1 (centres undefined)	i
54	COc1ccc(CCNC(=O)N2CCC(c3nnc(C(F)(F)F)o3)CC2)cc1	i
55	CCOc1ccccc1-c1nc(Cn2nnc(C(=O)Nc3ccccc3OC)c2C)c(C)o1	i
56	CCOC(=O)c1ccc(NC(=O)Cc2cc(=O)[nH]c(SCc3ccc(F)cc3)n2)cc1	i
57	CCn1c(SCC(=O)Nc2ccc(Cl)cc2F)nc2c3cc(OC)ccc3n(C)c2c1=O	i
58	COC(=O)c1ccc(C(=O)NCc2nc(COc3ccc(OC)cc3)no2)cc1	i
59	O=C(Nc1ccc2c(c1)OCO2)C(c1ccccc1)n1cccc1 (centres undefined)	i
60	O=C(Nc1nc2c(s1)CN(C(=O)c1ccc(Cl)s1)CC2)C1CCC1	i

# More results:
nr	mol	GIRK2 act
61	CCOc1ccc(N(C)S(=O)(=O)c2ccsc2C(=O)Nc2ccc(OC)c(Cl)c2)cc1	i
62	COc1ccc(C(=O)Nc2ccc(-n3c(C)nc4ncccc4c3=O)cc2C)cc1	i
63	O=C(Cn1nc(N2CCSCC2)c2ccccc2c1=O)Nc1cccc(C(F)(F)F)c1	i
64	COc1ccccc1CC(=O)NCCn1nc(-n2ccnc2)ccc1=O	i
65	O=S(=O)(NCCn1ccc(-c2ccccn2)n1)C1CCCCC1	i
66	CN(C)S(=O)(=O)c1ccc(-c2nc(C#N)c(N3CCCCCC3)o2)cc1	i
67	O=c1c(-c2ccccc2)coc2cc(OCc3cc(Cl)cc4c3OCOC4)ccc12	i
68	O=S(=O)(c1ccc(Br)s1)N1CC(c2nc(-c3ncccn3)no2)C1	i
69	CS(=O)(=O)N1CCN=C1SCc1ccccc1Cl	i
70	CCCN(CCC)C(=O)c1cc(-c2ccccn2)nc2ccccc12	i
71	Cc1ccc(S(=O)(=O)N2CCN(c3ccccc3)CC2)cc1	i
72	Cc1ccc(-c2noc(CSc3nc(C)c(Cc4ccccc4)c(=O)[nH]3)n2)cc1C	i
73	NC(=O)c1nnn(-c2ccc(NC(=O)c3ccccc3Cl)cc2)n1	i
74	COc1cc(C(=O)N2CCN(c3cc(C)ccc3C)CC2)cc(OC)c1OC	i
75	Cc1ccccc1OCC(O)Cn1c(N2CCN(C)CC2)nc2c1c(=O)n(C)c(=O)n2C (centres undefined)	i
76	CSCCC(C)(O)CNC(=O)NC1CCCCC1 (centres undefined)	i
77	O=C(NC(c1ccccc1)c1ccccc1)N(CCc1cccs1)C1CC1	i
78	O=c1cc(CN2CCOCC2)c2c(ccc3ccccc32)o1	i
79	CC(C)N1CCc2c(sc(NC(=O)Cc3ccc(F)cc3)c2-c2nc3ccccc3s2)C1	i
80	Cc1csc(SCC2CCN(C(=O)Nc3ccccc3)CC2)n1	i
81	CC(SC1=NCCN1S(=O)(=O)c1ccc(Br)cc1)c1ccccc1 (centres undefined)	i
82	Cc1ccc(-n2cc(C(=O)N3CCC(NC(=O)c4ccccc4Cl)CC3)nn2)cc1	i
83	COC(=O)c1ccc(C2c3c(oc4ccc(Cl)cc4c3=O)C(=O)N2C)cc1 (centres undefined)	i
84	COc1cc(Cn2nc(-c3cccs3)c3sc(N4CCCCC4)nc3c2=O)cc(OC)c1	i
85	CCOC(=O)c1c(C)n(C)c2ccc(O)c(CN3CCC(C)CC3)c12	i
86	COc1ccc2c(=O)c3c(oc2c1)C(=O)N(CCN(C)C)C3c1ccc(OC)c(OC)c1 (centres undefined)	i
87	O=c1[nH]c2nc(N3CCCCC3)ncc2c(=O)n1-c1ccccc1F	i
88	COCCNC(=O)/C(C#N)=C1\N=C(NC(=O)c2ccc([N+](=O)[O-])cc2)c2ccccc21	i
89	CC(C)CCNC(=O)c1cc2c(=O)n(C)c(=O)n(C)c2n1Cc1ccccc1	i
90	O=C(NCc1ccc(OC(F)(F)F)cc1)c1cnn2c1OCCC2	i
91	CCN(CC)CCN1C(=O)C(O)=C(C(=O)c2cc3ccccc3o2)C1c1ccccn1 (centres undefined)	i
92	COC(=O)NC(=O)c1ccc(Cl)cc1	i
93	Cc1c(Cl)cccc1NC(=O)C(=O)NCCC(O)c1cccs1 (centres undefined)	i
94	O=C(Cn1cnc2ccccc21)NCc1cnn2ccccc12	i
95	CN(C)CC1COCCN1C(=O)c1cnn(-c2ccccc2)n1 (centres undefined)	i
96	COc1ccc(S(=O)(=O)N(C)c2ccsc2C(=O)NCc2ccc(F)cc2F)cc1	i
97	COCCc1nnc(NC(=O)c2cc(C)on2)o1	i
98	O=C(Nc1nc(C(=O)N2CCN(Cc3ccc4c(c3)OCO4)CC2)co1)C1CC1	i
99	COc1ccc(CCNC(=O)CSC2=NS(=O)(=O)c3ccccc3N2)cc1OC	i
100	Cc1nc2ccccc2nc1SCC(=O)c1cc2ccccc2oc1=O	i

# In another format: four of the compounds above
(48) O=C(NCCc1cccs1)c1ccc(S(=O)(=O)N2CCOCC2)cc1
- GIRK2 act = i
(70) CCCN(CCC)C(=O)c1cc(-c2ccccn2)nc2ccccc12
- GIRK2 act = i
(88) COCCNC(=O)/C(C#N)=C1\N=C(NC(=O)c2ccc([N+](=O)[O-])cc2)c2ccccc21
- GIRK2 act = i
(14) O=C(NCC1(CO)CC1)c1ccc2nsnc2c1
- GIRK2 act = i

# Other results:
nr	mol	GIRK2 act
101	O=C(NCC1CCN(c2ccccn2)CC1)Nc1cccc(C(F)(F)F)c1	i
102	Cc1cccc(Nc2nc(CC(=O)NCc3ccccc3OC(F)(F)F)cs2)n1	i
103	Cc1nc2cc(NC(=O)C3COCC(=O)N3Cc3cccs3)ccc2s1 (centres undefined)	i
104	COCCCn1c(C(=O)Nc2cccc(C(F)(F)F)c2)cc2c(=O)n3ccccc3nc21	i
105	C=CCN1CC(c2nc3ccccc3n2CCCc2ccccc2)CC1=O (centres undefined)	i
106	CC(C)N1CCC(CNC(=O)c2ccc(C(C)(C)C)cc2)CC1	i
107	COc1cccc(CNC(=O)C2CCN(c3nccc(-n4nc(C)cc4C)n3)CC2)c1	i
108	COc1ccccc1CNC(=O)Cn1ccn2nc(-c3ccccc3)cc2c1=O	i
109	CCCN(CCC)S(=O)(=O)c1cccc([N+](=O)[O-])c1	i
110	C=C[C@]1(C)C[C@@H](OC(=O)COC2OC(CO)C(O)C(O)C2O)[C@@]2(C)C3C(=O)CC[C@@]3(CC[C@H]2C)[C@@H](C)C1O (some centres undefined)	i
111	CS(=O)(=O)N1CCC(C(=O)NCCOc2ccc(-c3ccccn3)nn2)CC1	i
112	O=C(O)CCC(=O)NCc1ccoc1	i
113	CCOc1ccccc1NC(=O)CN1C(=O)C2(SCC(=O)N2c2ccc(F)cc2)c2ccccc21 (centres undefined)	i
114	Cc1cccc(NC(=O)c2n[nH]nc2Nc2ccc(Cl)cc2)c1C	i
115	Cc1nnc2ccc(N3CCN(S(=O)(=O)c4cc(F)ccc4F)CC3)nn12	i
116	C=CCn1c(=O)c2c(nc(Br)n2C)n(C)c1=O	i
117	COc1ccc(NC(=O)c2cn(-c3cc(N4CCCCC4)ncn3)cn2)cc1Cl	i
118	Cc1c(C)n2c3c(=O)n(CC(N)=O)c(=O)n(C)c3nc2n1-c1cccc(Cl)c1	i
119	COc1ccccc1N1CCCn2c1nc1c2c(=O)n(CCc2ccccc2)c(=O)n1C	i
120	N#Cc1ccccc1CN1CCC(c2nnc(C(F)(F)F)o2)CC1	i
121	NC(=O)CSc1nnc(N2CCN(C(=O)c3ccc([N+](=O)[O-])o3)CC2)s1	i
122	COc1ccc(-c2cc3c(N)ncnc3o2)cc1	i
123	COc1ccccc1-c1noc(Cn2ccn3nc(-c4cccc5ccccc45)cc3c2=O)n1	i
124	Cc1cn2c3c(=O)[nH]c(=O)n(C)c3nc2n1CCCNc1cccc(Cl)c1	i
125	CCOC(=O)CCC(=O)NCc1ccsc1	i
126	O=C(O)c1cccc(SSc2cccc(C(=O)O)c2)c1	i
127	CCC(C(=O)Nc1ccc2c(c1)C(=O)N1CCCCC1CCO2)c1ccccc1 (centres undefined)	i
128	COc1cccc(-n2nc(-c3nc(-c4ccc5c(c4)OCO5)no3)c3ccccc3c2=O)c1	i
129	O=C(c1ccc(S(=O)(=O)N2CCc3ccccc3C2)cc1)N1CCCc2ccccc21	i
130	CC(=O)Nc1nnc(C2CC(=O)N(c3ccccc3)C2)o1 (centres undefined)	i
131	COCCn1c(N)c(C(=O)NCCCOC(C)C)c2nc3ccccc3nc21	i

# Not all compounds are listed. The share of hits here may be higher or lower than overall.
